# HCMV NEC inh – cytomegalovirus nuclear egress complex inhibition. inhibition, % (no concentration beside the values). HTRF UL50-UL53 interaction, normalized percent inhibition. 0.15% of 190,000 active;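 active means both replicates at 50% or more, plus weaker picks with an unusually low signal ratio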;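 further: stock transfer was 100 nL into about 20 µL; 0% = negative control wells and 100% = wells with untagged competitor protein; inactives centre near -12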
# Sa growth inh – S. aureus growth inhibition; S. aureus RN4220 growth, OD600, 20 h, 42 °C; hits give low values; relative growth, % (test concentration not listed); 0.53% of 170,000 active;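 active means growth at 42 °C up to 50% and 20 or more points under that at 30 °C, or under 10% at both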;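 further: 300 nL library stock went into each well; scaled to the means of positive and negative controls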
# GIV-Gai inh – GIV-Galpha-i interaction inhibition; 0.42% of 210,000 active; Galpha-i3/FITC-GIV peptide fluorescence polarization, 90 min; hits give low values; scaled: aluminum fluoride 0%, vehicle 100%; P08753; percent of control (FP), % (no concentration beside the values);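 active means replicate mean at 85% of control or lower, very high polarization wells dropped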;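 further: wells of about 15 µL received 100 nL stock; the first replicate is given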
# Target sequence (P08753 whole entry, looked up): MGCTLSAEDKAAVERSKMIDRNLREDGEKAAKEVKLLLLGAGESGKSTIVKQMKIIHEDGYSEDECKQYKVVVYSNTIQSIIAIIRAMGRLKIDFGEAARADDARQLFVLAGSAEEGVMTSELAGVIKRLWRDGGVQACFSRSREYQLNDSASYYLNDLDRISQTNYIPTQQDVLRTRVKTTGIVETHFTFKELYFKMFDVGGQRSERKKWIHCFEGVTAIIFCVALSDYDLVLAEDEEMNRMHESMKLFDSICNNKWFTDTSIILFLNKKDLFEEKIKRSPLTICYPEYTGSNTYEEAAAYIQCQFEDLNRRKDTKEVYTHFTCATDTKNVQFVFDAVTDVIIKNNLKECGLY
# Sa growth inh second temp – further read-out of Sa growth inh, marked with its call; relative growth, %; measured here: growth at 30 °C;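 optical density after 20 h as mean of two plates; 100% = untreated growth and lower means inhibition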
# * = called active by the depositor; . = not tested or not shown; & = joins results of further samples.
mol,HCMV NEC inh,Sa growth inh,Sa growth inh second temp,GIV-Gai inh
CC(C)CN(CCCNC(=O)CN1C(=O)CSc2ccc(S(=O)(=O)N3CCOCC3)cc21)CC(C)C,.,121.7,92.2,106.5
O=C1C=CC(=O)N1CCc1ccc(Cl)cc1,-9.9,9.7*,33.6*,105.4
COc1ccc(C(=O)N(Cc2nc3nc(C)cc(=O)n3[nH]2)c2ccc(C)cc2)cc1,-7.3,.,.,109.4
C=CCN(C(=O)COc1ccccc1)c1nnc(-c2ccncc2)s1,-3.3,96.8,90.4,103.1
CCOC(=O)N1CCN(C(=O)CNC(=O)c2cc(C)cc(C)c2)CC1,-8.4,70.1,91.0,.
O=C(c1cccc(C(F)(F)F)c1)c1cc2cc(Cl)ccc2oc1=O,-7.3,112.1,87.7,98.1
COC(=O)c1ccccc1NC(=O)COC(=O)C1=NNC(=O)CC1,-0.7,100.3,86.9,.
COc1ccc(C2CC(=O)C3=C(C2)Nc2ccccc2NC3c2ccc(OC(C)=O)c(OC)c2)cc1OC (stereo unspecified),-14.6,.,.,108.3
O=S(=O)(NCc1ccccn1)C1=Cc2ccccc2CC1,-31.0,104.4,85.4,.
COc1ccc(-c2c(C)nn3c(N4CCC(C)CC4)cc(C)nc23)cc1OC,.,93.9,80.9,103.8
Cc1nn(C)c(Oc2cccc(Cl)c2)c1C(=O)O,0.1,.,.,105.3
Cc1ccc(CNC(=O)CN2C(=O)COc3ccccc32)cc1,.,114.7,89.1,104.6
COc1ccc(Cl)cc1NC(=O)Cn1ncc2c3ccccc3n(C)c2c1=O,4.3,108.5,111.4,102.5
O=S(=O)(c1ccc2c(c1)CCO2)N1CCN(c2ccc(F)cc2)CC1,1.7,121.0,90.3,110.4
O=C(O)C1C2C=CC3(CN(Cc4ccncc4)C(=O)C13)O2 (stereo unspecified),-1.9,114.1,89.4,.
Cc1onc(-c2c(F)cccc2Cl)c1C(=O)ONC(=O)c1ccccc1,-14.5,96.1,95.0,111.5
CCn1c(=O)[nH]c2ccccc21,-16.4&8.8,84.5,84.1,.
Cc1nc2ccn(Cc3ccco3)c(=O)c2cc1C(=O)N1CCN(c2ccc(F)cc2)CC1,.,101.1,97.7,101.2
COc1ccccc1CCNC(=O)C(=O)NCC(c1ccco1)S(=O)(=O)c1ccccc1 (stereo unspecified),.,92.9,95.0,99.0
CC1=C(C#N)C(c2ccc(Br)cc2)C2=C(CCCC2=O)N1 (stereo unspecified),-9.2,78.1,58.8,103.1
CCOC(=O)c1ccc(NC(=O)C2CC(=O)N(c3ccc(C(C)C)cc3)C2)cc1 (stereo unspecified),-61.8,97.3,74.9,102.8
COc1cccc(Cn2nnc3c(=O)[nH]c(C4CCCN(C(=O)c5ccc(C)cc5)C4)nc32)c1 (stereo unspecified),23.5,79.4,81.5,109.1
Cc1nc(/C(N)=N/OC(=O)c2c(-c3ccccc3Cl)noc2C)cs1,-5.5,112.1,89.0,108.6
COc1ccc(-n2nc(C(=O)NCc3ccc(F)cc3Cl)c3c4ccccc4n(C)c3c2=O)cc1Cl,-3.7,102.1,93.2,100.1
Cc1ccc2cc(-c3noc(CCCC(=O)NC4CCCC4)n3)c(=O)[nH]c2c1,-21.9,.,.,105.1
COc1ccc(CNC(=O)c2nc(Cn3nc(C)c(Br)c3C)no2)cc1OC,-14.8,106.0,84.5,106.0
COc1ccccc1NC(=O)CN1c2cccc3cccc(c23)S1(=O)=O,.,116.3,91.5,102.5
Cc1cc(/C=C(\C#N)C(=O)Nc2ccccc2)c(C)n1-c1ccc(F)cc1,5.8,89.1,95.9,102.1
Cc1ccccc1-c1noc(CCC(=O)Nc2cccc(C)c2C)n1,1.7,98.8,90.3,104.0
O=C(c1ccccc1)N1CCC(c2ccncc2)CC1,-15.0,98.1,91.8,102.7
Cc1cc(C)c2c3c(sc2n1)C(=O)N(c1ccc(Cl)cc1)CN3,-36.2,.,.,106.3
O=C(Nc1ccc(Cl)cc1OC(F)(F)F)c1ccco1,0.4,96.8,73.0,101.9
N#Cc1cccc(NC(=O)Cc2ccccc2)c1,-11.3,96.0,85.7,103.3
CC(C)C(NS(=O)(=O)c1ccc2c(c1)OCCO2)C(=O)OCc1cn2cc(Cl)ccc2n1 (stereo unspecified),-8.0,87.4,78.3,.
Nc1ccc(O)cn1,-56.3,82.5,80.5,100.2
Cc1c(-n2c(O)c(C3=c4ccccc4=NC3=O)sc2=O)c(=O)n(-c2ccccc2)n1C,-11.5&-8.6,106.2,91.0,100.3&100.3
CCOC(=O)CNC(=O)Nc1cc(C(=O)NCc2ccc(C(C)C)cc2)ccc1N1CCCC1,.,88.5,85.4,94.8
COC(=O)NCC(c1ccc2c(c1)OCO2)N1CCN(c2ccccc2)CC1 (stereo unspecified),-20.3,85.3,83.8,99.5
N#Cc1cnc(-c2ccncc2)nc1-c1cccs1,-23.2,86.6,85.7,99.2
COc1ccc(C(=O)CN2C(=O)COc3ccccc3C2=O)cc1F,11.3,.,.,106.9

# Complete entries, looked up by structure. Screens in order: HCMV NEC inh | Sa growth inh | Sa growth inh second temp | GIV-Gai inh
# COC(=O)NCC(c1ccc2c(c1)OCO2)N1CCN(c2ccccc2)CC1 (stereo unspecified) as listed: -20.3 | 85.3 | 83.8 | 99.5
# CC(C)C(NS(=O)(=O)c1ccc2c(c1)OCCO2)C(=O)OCc1cn2cc(Cl)ccc2n1 (stereo unspecified) as listed: -8.0 | 87.4 | 78.3 | .
# Cc1nc(/C(N)=N/OC(=O)c2c(-c3ccccc3Cl)noc2C)cs1 as listed: -5.5 | 112.1 | 89.0 | 108.6
# O=C(Nc1ccc(Cl)cc1OC(F)(F)F)c1ccco1 as listed: 0.4 | 96.8 | 73.0 | 101.9

# New compounds follow:
mol,HCMV NEC inh,Sa growth inh,Sa growth inh second temp,GIV-Gai inh
O=C(NCCN1CCOCC1)C1CCCN1S(=O)(=O)c1ccc(Cl)cc1 (stereo unspecified),-11.8,79.3,92.9,.
Cc1c(Cc2ccccc2)c(=O)oc2c(C)c(OCC(=O)O)ccc12,-6.8,115.7,93.1,105.3
CC(C)(CC(=O)O)CC(=O)N1CCN(c2ncccc2C#N)CC1,5.4,125.3,98.2,104.8
Cc1cc(C)c(C=C2C(=O)CCCC2=O)[nH]1,-59.4,104.9,90.2,103.8
COC(=O)C1=C(C)NC(C)=C(C(=O)OC)C1C,18.0,118.5,95.6,102.1
O=C1CCCCC1Sc1nnc(-c2ccc3c(c2)OCO3)o1 (stereo unspecified),-1.5,84.8,94.9,.
CCOc1ccc(-n2cc(C(=O)N3CCN(c4ccccn4)CC3)c3cc(OC)c(OC)cc3c2=O)cc1,19.8,.,.,97.1
Cc1nc2ccc(Cc3ccc4nc(C)[nH]c4c3)cc2[nH]1,-21.3,98.7,80.3,106.6
CCN(Cc1nc(-c2ccc(OC)cc2)oc1C)S(=O)(=O)c1ccc(C)cc1,.,104.8,90.0,104.0
CCc1ccc(C(=O)NC(C)C2CCCO2)s1 (stereo unspecified),9.0,111.8,101.8,106.7
CCOC(CNC(=O)c1sc2nc(C)nc(N3CCOCC3)c2c1C)OCC,-37.9,.,.,105.3
c1ccc(-c2nc3c4ccccc4ccn3c2CN2CCOCC2)cc1,.,96.3,66.6,101.7
Cc1c(C)n(Cc2ccccc2)c2ccc(C(=O)NCC3CCCO3)cc12 (stereo unspecified),-16.6,.,.,107.2
C=CCOc1ccc2ccccc2c1/C=N/O,-35.7,.,.,105.2
CN1c2ccccc2C(=O)/C(=C\Nc2cccnc2)S1(=O)=O,-29.7,100.5,67.4,106.6
CCCOC(=O)Cc1n[nH]c(=O)[nH]c1=O,-3.2,97.2,85.8,97.0
CCc1ccc(S(=O)(=O)N2CCn3cccc3C2c2ccc(OC)c(OC)c2)s1 (stereo unspecified),-23.3,108.1,95.1,110.1
Cc1c(Cl)ccc2c1NC(=O)C2(O)N1CCCC(C)C1 (stereo unspecified),-33.7,100.1,93.0,98.2
Cc1ccc(-c2noc(CSc3nnc(C)n3-c3ccc(F)cc3)n2)cc1,-1.5,106.7,86.1,105.5
CCN1C(=O)CCc2cc(NS(=O)(=O)c3ccc4c(c3)CCCC4)ccc21,-32.5,.,.,103.9

# An excerpt from above in order of length of the SMILES, falling:
mol,HCMV NEC inh,Sa growth inh,Sa growth inh second temp,GIV-Gai inh
CCOc1ccc(-n2cc(C(=O)N3CCN(c4ccccn4)CC3)c3cc(OC)c(OC)cc3c2=O)cc1,19.8,.,.,97.1
CCN(Cc1nc(-c2ccc(OC)cc2)oc1C)S(=O)(=O)c1ccc(C)cc1,.,104.8,90.0,104.0
Cc1c(Cl)ccc2c1NC(=O)C2(O)N1CCCC(C)C1 (stereo unspecified),-33.7,100.1,93.0,98.2

# (more compounds)
mol,HCMV NEC inh,Sa growth inh,Sa growth inh second temp,GIV-Gai inh
Nc1ccccc1Oc1ccc2ccccc2c1,9.8,67.5,76.2,.
O=C(CSc1nc2c([nH]c3ccccc32)c(=O)n1-c1ccc(Cl)cc1)NC1CCCCC1,.,96.6,87.6,100.5
COc1cc(C(=O)CSc2ccc(C)cc2)cc(OC)c1OC,-9.2,103.8,94.5,.
O=C(CNC(=O)c1ccccc1Cl)OCc1cc(=O)n2nc(C3CC3)sc2n1,.,84.8,80.1,109.0
COc1ccc(C2C(C#N)=C(N)OC3=C2C(=O)CC(C)(C)C3)cc1Cn1nc(C)c([N+](=O)[O-])c1C (stereo unspecified),-8.7,.,.,100.1
O=C(OCCN1C(=O)c2ccccc2C1=O)c1cc2ccccc2oc1=O,-35.0,96.8,90.5,.
O=C(/C=C/c1ccc(Br)o1)NC1=NCCS1,-18.4,104.5,96.1,.
Cc1nc2nc(-c3ccccc3)nn2c(C)c1CC(=O)NC(C)C,-24.8,.,.,107.0
FC(F)(F)c1cccc(N2CCN(C3=Cc4ccccc4CC3)CC2)c1,-9.4,74.3,58.4,102.8
CCN(CC)CCNS(=O)(=O)c1ccc2c(c1)N(C(C)=O)CCCS2,47.1,.,.,101.2
CC(NC(=O)CN(C)C1CCS(=O)(=O)C1)c1ccccc1 (stereo unspecified),-21.6,86.7,89.4,.
O=C(N/N=C/c1ccncc1)C1CCCCC1,-37.5,97.1,105.1,104.2
NS(=O)(=O)c1ccc(CCNC(=O)c2ccc(Cl)cc2)cc1,0.0,106.8,104.2,98.7
Nc1ccc(C(=O)OCc2nc3ccccc3[nH]2)cc1,-13.7,103.9,74.3,101.1
CC(C)CN(C(=O)CSc1nc(N)cc(N)n1)C1CCS(=O)(=O)C1 (stereo unspecified),1.0,76.2,92.1,.
Cc1c(Br)c(=O)[nH]c(=O)n1COCc1ccccc1,-11.3,119.2,81.2,101.2
Cc1nc(-c2ccc(N3CCN(C(=O)Nc4cccc(C)c4C)CC3)cc2)no1,-9.4,.,.,110.3
CCOC(=O)c1c(/N=C/c2c(O)n(C)c3ccccc23)sc(C)c1C,.,127.9,96.7,52.3*
CCn1c(=O)c2cc(C(=O)NCCCOC)sc2c2ccccc21,-57.8,89.2,101.5,107.1
O=C(Nc1ccc(-c2nc3ncccc3o2)cc1)c1ccc([N+](=O)[O-])o1,-14.5,.,.,107.0
C=CCn1c(=O)c(C(=O)Nc2ccc3c(c2)OCO3)c(O)c2ccccc21,-34.8,.,.,107.6
CCOC(=O)N1CCN(C2CC(=O)N(c3ccc(I)cc3C)C2=O)CC1 (stereo unspecified),-11.8,115.6,84.8,100.3
Cc1cccc(N(C)S(=O)(=O)c2cc3[nH]c(=O)c(=O)[nH]c3cc2C)c1,.,127.9,98.5,99.1
O=C(N/N=C/c1ccc(-c2ccc(S(=O)(=O)Nc3ncccn3)cc2)o1)c1cccnc1,-54.4,92.2,97.8,.
O=C(COC(=O)c1c[nH]c(=O)[nH]c1=O)Nc1ccccc1,-8.7,96.2,100.1,.
CC(C)CNc1nc(Oc2ccc(=O)n(C)n2)nc(N2CCOCC2)n1,3.3,98.7,92.2,104.4
Cn1c(COc2ccc(C(C)(C)c3ccccc3)cc2)n[nH]c1=S,-15.8,81.8,26.5,.
Cc1ccc(Nc2nc(N)c([N+](=O)[O-])c(Nc3ccc(C)cc3)n2)cc1,1.3,.,.,101.1
CC(C)(C)c1ccc(C(=O)N2CCC(c3nc(-c4ccc(S(=O)(=O)N5CCCC5)cc4)no3)CC2)cc1,-27.7,105.9,88.7,103.2
CCC(CC)C(=O)Nc1nnc(SCc2cc(=O)c3ccccc3[nH]2)s1,.,100.0,89.8,109.8
CC1=C(C(=O)Nc2ccc(Cl)cc2C(=O)N2CCN(c3ccccc3)CC2)SCCO1,.,115.0,98.0,104.7
CC(=O)N(Cc1cccnc1)c1nc2c(C)cc(C)cc2s1,.,118.4,88.2,101.2
Cn1c(=O)c(C(=O)Nc2cccc(F)c2)nc2ccccc21,-163.1,.,.,103.5
CCCn1c(=O)c2ccc(C(=O)NC(C)C)cc2n2c(=O)n(CC(=O)c3cc(C)ccc3C)nc12,-22.3,.,.,100.1
Cc1noc2c1C(c1ccc(O)c(O)c1)C1=C(CCCC1=O)N2 (stereo unspecified),-5.4,.,.,103.7
COc1cccc(CNC(=O)c2cccc(-n3c(C)nc4cccnc43)c2C)c1,.,101.5,99.9,105.2
NNc1nc2ccccc2[nH]c1=S,-38.8,15.7,7.8,113.7
Cc1ccccc1NC(=O)CN1C(=O)C(C)(C)c2ccccc21,.,106.9,83.2,102.4
NC(=O)C1=C(N)NC(=S)NC1c1ccccc1 (stereo unspecified),-3.2,72.4,88.8,.

# Assay outcomes (PubChem BioAssay)

# Random draw from the library; overall some 0.79% were active at least once.
